Compound activity from PubChem BioAssay.
Autofluor counter: counter-screen for toxin protease inhibitors: compound fluorescence. compound autofluorescence counterscreen, microsphere flow cytometry; hits give high values. fluorescence intensity (concentration not given with the values). actives 3.1% (n = 360,000);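 active means at least 3 SD above the mean of all compounds, about 16000 in these data; inconclusive means too few beads counted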;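 further: 100 nL of 1 mM stock went into each well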
RN4220 kill: S. aureus RN4220 growth inhibition; OD600, 16 h; inhibition, % (test concentration not listed); actives 0.33% (n = 330,000); AID 1259311;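 active means z-score of -3 or lower and OD600 up to 0.18 on both plates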;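 further: plate controls were untreated cells for no effect and reference antibiotic for full effect; stock transfer was 100 nL into about 80 µL; one replicate is shown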
PrP 5UTR inh: inhibition of PrP 5' UTR reporter expression. cell-based PrP 5' UTR mRNA reporter, plate reader. inhibition, % (concentration not given with the values). actives 0.35% (n = 340,000). AID 488862;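 active means every replicate at 50% or more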;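 further: 0 = median of the neutral control wells; tested in H4 reporter cells; numbers are from one replicate; inactives centre near -14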
ugtP null kill: kills S. aureus RN4220 lacking UgtP. S. aureus RN4220 ugtP deletion, OD600 growth, 16 h; some inactives read as strong as hits. growth inhibition, % (test concentration not listed). actives 0.54% (n = 330,000). AID 1259309;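 active means z-score under -3 and OD600 up to 0.15 on both plates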;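 further: plate controls were untreated wells for no effect and antibiotic for full effect; wells of about 80 µL received 100 nL stock; the first replicate is given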
BJeLR viability: BJeLR cell viability loss | BJeLR (HRASV12) viability, CellTiter-Glo ATP luminescence, 48 h; reference of the scale not given here | inhibition, % (test concentration not listed) | actives 0.17% (n = 300,000) | AID 1554;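 active means replicate mean above 50%; inconclusive means above 50% but judged a plate artefact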;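 further: 50 nL library stock added to about 25 µL; numbers are from one replicate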
Mtb hypoxia inh: Mtb hypoxia fluorescent reporter inhibition | M. tuberculosis hypoxia-regulated fluorescent reporter, fluorescence | AID 1159583 | actives 0.1% (n = 300,000) | fluorescence inhibition, % (concentration not given with the values);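 active means 35 to 45% if threefold the growth effect, above 45% if 1.5-fold the growth effect; inactive means the rest, general growth blockers included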;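 further: wells of about 50 µL received 100 nL stock; 0% = vehicle wells and 100% = reference inhibitor wells; whole bacteria with a GFP reporter of the hypoxia response; strong numbers were not always called active; many hits fall short of the cut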
Mtb hypoxia inh growth: also measured in Mtb hypoxia inh; calls as there; growth inhibition, %; measured here: M. tuberculosis growth (absorbance);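 0% = vehicle and 100% = reference antibiotic; read after six days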
* = called active by the depositor; ? = inconclusive; / = not tested or not shown. Rows were taken by chance (roughly 4% active in at least one column).

SMILES | Autofluor counter | RN4220 kill | PrP 5UTR inh | ugtP null kill | BJeLR viability | Mtb hypoxia inh | Mtb hypoxia inh growth
O=C(NNC(=S)NC1CC2CCC1C2)c1ccc(Cl)cc1 (configuration not stated) | 4584 | 2.3 | -12 | 3 | -10 | 12 | 6
COc1ccc(OCCCn2c(=O)oc3ccccc32)cc1 | 3140 | 13 | -16 | 9 | 6 | 12 | 7
Cc1cccc(-c2nnc(SCC(=O)NC3CC3)n2C)c1 | 6061 | 2.2 | -16 | 2 | -3 | 7 | 0
CC1(C)SC(=S)N(Cc2ccc3c(c2)OCO3)C1N(O)C(=O)NC1CCCCC1 (configuration not stated) | ? | -5.4 | -61 | -5 | -16 | / | /
Cc1ccc(NC(=O)CN2CCOCC2)cc1S(=O)(=O)N1CCCCC1 | 4168 | 1.5 | 1 | 1 | / | 5 | 6
COc1ccc(-c2cc(O)cc(O)c2)cc1 | 16572* | 4.3 | -115 | 10 | 1 | 1 | 3
Cc1ccc(CCN2CC(C(=O)NCc3ccco3)CC2=O)cc1 (configuration not stated) | 3203 | 6.3 | -11 | 6 | 4 | 4 | -4
COc1ccccc1NS(=O)(=O)c1cccc(C(=O)NNC(=O)c2ccc(NC(C)=O)cc2)c1 | 7834 | 2.5 | -20 | 7 | / | -2 | -1
CN1CCC(N(C)C(=O)c2cccc(S(=O)(=O)N3CCc4ccccc43)c2)CC1 | 4733 | 2.8 | -7 | 1 | / | -5 | 4
Cc1cccc(NC(=S)NCC23C=CC(O2)C2C(=O)N(c4ccc(Cl)cc4)C(=O)C23)c1 (configuration not stated) | 6596 | 6.6 | -4 | 11 | -11 | 7 | 0
O=S1(=O)[C@H]2C[C@@H]3C=C[C@@]2(CN1Cc1cccc(C(F)(F)F)c1)O3 | 2739 | -6.9 | -20 | 7 | 8 | 5 | -1
O=[N+]([O-])c1ccc(Oc2ccc(C=NO)cc2)nc1 | / | -0.7 | / | 6 | / | 10 | 6
CCOc1ccc(-n2nnnc2SCC(=O)c2ccccc2)cc1 | 3483 | -4.0 | -8 | -4 | 16 | -4 | 1
CC(=O)c1cc(C#N)c(NCc2ccccc2)nc1C | 3464 | 5.4 | -2 | -1 | 5 | 10 | 0
CC(C)CC1(C)NC(=O)N(CC(=O)Nc2cccc(S(=O)(=O)N(C)c3ccccc3)c2)C1=O (configuration not stated) | 4659 | 4.9 | -21 | -1 | 13 | -10 | -8

Some of these compounds in order of formula weight, lowest first.
SMILES | Autofluor counter | RN4220 kill | PrP 5UTR inh | ugtP null kill | BJeLR viability | Mtb hypoxia inh | Mtb hypoxia inh growth
COc1ccc(-c2cc(O)cc(O)c2)cc1 | 16572* | 4.3 | -115 | 10 | 1 | 1 | 3
O=[N+]([O-])c1ccc(Oc2ccc(C=NO)cc2)nc1 | / | -0.7 | / | 6 | / | 10 | 6
CC(=O)c1cc(C#N)c(NCc2ccccc2)nc1C | 3464 | 5.4 | -2 | -1 | 5 | 10 | 0
COc1ccc(OCCCn2c(=O)oc3ccccc32)cc1 | 3140 | 13 | -16 | 9 | 6 | 12 | 7
Cc1cccc(-c2nnc(SCC(=O)NC3CC3)n2C)c1 | 6061 | 2.2 | -16 | 2 | -3 | 7 | 0
O=C(NNC(=S)NC1CC2CCC1C2)c1ccc(Cl)cc1 (configuration not stated) | 4584 | 2.3 | -12 | 3 | -10 | 12 | 6
CCOc1ccc(-n2nnnc2SCC(=O)c2ccccc2)cc1 | 3483 | -4.0 | -8 | -4 | 16 | -4 | 1
CC1(C)SC(=S)N(Cc2ccc3c(c2)OCO3)C1N(O)C(=O)NC1CCCCC1 (configuration not stated) | ? | -5.4 | -61 | -5 | -16 | / | /
CC(C)CC1(C)NC(=O)N(CC(=O)Nc2cccc(S(=O)(=O)N(C)c3ccccc3)c2)C1=O (configuration not stated) | 4659 | 4.9 | -21 | -1 | 13 | -10 | -8
COc1ccccc1NS(=O)(=O)c1cccc(C(=O)NNC(=O)c2ccc(NC(C)=O)cc2)c1 | 7834 | 2.5 | -20 | 7 | / | -2 | -1

(cont.)
SMILES | Autofluor counter | RN4220 kill | PrP 5UTR inh | ugtP null kill | BJeLR viability | Mtb hypoxia inh | Mtb hypoxia inh growth
COc1ccc(Cc2nnc(SCC(=O)NCC3CCCO3)o2)cc1 (configuration not stated) | 6931 | 0.4 | -15 | 5 | 3 | 8 | 1
N#Cc1ccccc1NC(=O)COC(=O)c1cccs1 | 3616 | 2.6 | -41 | 6 | / | 7 | 4
COc1ccccc1OCC(=O)Nc1cccc(C(=O)N2CCOCC2)c1 | 5085 | -1.3 | -47 | -1 | -4 | -2 | 6
CCCN1C2CCCC1CC(NC(=O)c1cccc(OC)c1)C2 (configuration not stated) | 4278 | 1.5 | -29 | 10 | -4 | 16 | 9
Cc1oc(-c2cccs2)nc1CS(=O)CC(=O)NCCCOC(C)C (configuration not stated) | 5536 | 5.9 | -68 | 0 | 0 | 2 | 11
Cc1cc(C)c(NC(=O)CS)c(Cl)c1 | 3270 | 3.6 | -11 | -1 | -6 | -10 | -4
CC1CCCCC1NC(=O)CSc1nncn1N (configuration not stated) | 3464 | 4.0 | -14 | 8 | -2 | 4 | 9
COC(=O)C1=CN(Cc2ccccc2)C=C(C(=O)OC)C1c1ccc(O)c(OC)c1 | 3422 | 0.9 | -16 | -2 | 4 | 4 | 7
CN(C)C(CN=C1NS(=O)(=O)c2ccccc21)c1ccco1 (configuration not stated) | 4691 | 3.6 | -28 | -1 | -1 | 9 | -2
CN(Cc1ccccc1)C(=O)c1cccc(N2C(=O)C3CC=CCC3C2=O)c1 (configuration not stated) | 3863 | 4.7 | -19 | 8 | -13 | -7 | 2
COCc1cccc(C2=CC(=O)CC(c3ccc(F)cc3)C2)c1 (configuration not stated) | / | 4.4 | / | 1 | / | -4 | -9
O=C(O)C1CCN(S(=O)(=O)c2ccc(N3CCCC3C(=O)O)c([N+](=O)[O-])c2)CC1 (configuration not stated) | 5130 | 4.1 | -12 | 10 | 0 | 0 | -4
NC(=O)C[C@@H]1N[C@]2(C(=O)Nc3ccccc32)[C@@H]2C(=O)N(C3CCCCC3)C(=O)[C@H]12 | 5846 | -2.0 | -10 | -5 | 1 | -4 | -4
O=C(CSc1nn(-c2ccccc2)c(=S)s1)Nn1cnnc1 | 3527 | 3.5 | -14 | 12 | -1 | / | /
CC(NC(=O)C(=O)NCCCn1ccnc1)c1ccccc1 (configuration not stated) | 2384 | -2.4 | -3 | 6 | -4 | 16 | 7
N#CC1=C2SCC(O)(c3ccccc3)N2C(=O)CC1c1ccccc1 (configuration not stated) | 4509 | 0.7 | 39 | 8 | 39 | / | /
CCOc1cc(/C=N/NC(=O)c2cccnc2)ccc1OCc1ccc(C(=O)OC)o1 | 4463 | / | -23 | / | -6 | / | /
COc1ccc(CN(C)S(=O)(=O)c2nnc(NC(=O)c3ccc(C)cc3)s2)cc1OC | 5259 | 15 | -14 | -8 | 8 | 8 | 5
Nc1nnc(SCC(=O)OCc2ccc(F)cc2)s1 | 2542 | 2.5 | -8 | 13 | -7 | 14 | 5
CC(CC(=O)Nc1ccc([N+](=O)[O-])cc1)=NNC(=O)c1ccccc1[N+](=O)[O-] | / | 3.3 | / | 10 | / | 16 | 8
COc1ccc(N2C(=O)CSC23CCC(C(C)(C)C)CC3)cc1 (configuration not stated) | 10080 | 9.0 | -40 | -4 | -4 | 7 | 6
CC1(C)CC(=O)C2=C(C1)Nc1ccccc1[S@]2=O | 5813 | 1.7 | -5 | 6 | -12 | 3 | 8
O=C(COc1ccc([N+](=O)[O-])cc1)Nc1ccc(NC(=O)c2ccccc2)cc1 | 5963 | -0.1 | -2 | -7 | -11 | -2 | 9
CCOC(=O)c1ccc(NC(=S)N(CCCN2CCCC2)Cc2ccco2)cc1 | 11289 | 5.6 | -42 | 8 | 8 | 4 | 17
O=C(NCc1cccnc1)c1cc2nc(-c3cccs3)cc(C(F)(F)Cl)n2n1 | 4341 | 20 | 11 | 5 | -11 | 7 | 8
CCc1cc(SC#N)ccc1N | 4559 | 1.1 | -21 | 2 | 4 | 3 | 0
NC(=O)COC(=O)[C@H](Cc1c[nH]c2ccccc12)NC(=O)c1ccc(F)cc1 | 3669 | 1.8 | -14 | 4 | -10 | 3 | 7
CC(C)(C)C(=O)NCc1ccc(C(=O)CN2C(=O)NC3(CCCC3)C2=O)s1 | ? | 3.2 | -24 | 5 | / | 9 | 10
O=C1Nc2cc(C(=O)N3CCN(Cc4ccccc4)CC3)ccc2SC1N1CCOCC1 (configuration not stated) | 2383 | -12 | 5 | 13 | -6 | -5 | -3
CC(c1nc2ccccc2c(=O)[nH]1)N(C)c1ccc2ccccc2c1 (configuration not stated) | 9299 | 7.5 | -22 | 3 | -1 | 10 | 0
COc1ccc2oc(=Nc3cccc(F)c3)c(C(N)=O)cc2c1 | 2220 | 9.7 | -18 | -13 | 3 | -8 | 2
CCNCCC(=O)N1c2ccccc2Sc2ccc(C(F)(F)F)cc21 | 3119 | -1.9 | 0 | 3 | -6 | 5 | -2
CCOCCCn1c(=S)[nH]c2cc(C(=O)NCc3ccc(F)cc3)ccc2c1=O | 4166 | -1.0 | -5 | 17 | 3 | 7 | 2
O=C1[C@@H]2C(Cc3ccc(O)cc3)NC3(C(=O)Nc4ccc(F)cc43)[C@@H]2C(=O)N1c1ccccc1 (some centres not stated) | 4500 | -0.7 | -8 | -5 | -5 | -13 | 7
Cc1ccc(N2CC(C(=O)NCCc3ccc(S(N)(=O)=O)cc3)CC2=O)cc1 (configuration not stated) | 5757 | 2.9 | -32 | -1 | -2 | 3 | 8
COc1ccc(N2CCN(C3CCCCC3NS(=O)(=O)c3ccccc3)CC2)cc1 (configuration not stated) | 5214 | 4.2 | -5 | 5 | 9 | 9 | 15
O=C(CCCN1C(=O)C2CC=CCC2C1=O)Nc1cccc(F)c1 (configuration not stated) | 5516 | 1.9 | -11 | 0 | 6 | 11 | 6
CCC(C)N(C(=O)COC(=O)c1cc([N+](=O)[O-])ccc1N)C1CCS(=O)(=O)C1 (configuration not stated) | 4794 | 2.5 | -5 | 8 | 0 | 3 | -5
COc1ccccc1NC(=O)C1Cc2ccccc2CN1C(=O)c1ccco1 (configuration not stated) | 3876 | 2.4 | -18 | 5 | -6 | 1 | 6
CC/C(Cc1ccccc1)=N/NC(=O)c1cccc(Br)c1 | 2320 | / | 0 | / | -6 | / | /
COc1cc(/C=N/n2c(-c3cc(C)[nH]n3)n[nH]c2=S)cc(OC)c1OC | 3405 | / | -3 | / | 5 | / | /
Cc1ccc(C2CC2C(=NO)c2ccc(F)cc2)cc1 (configuration not stated) | / | 2.0 | / | 6 | / | 19 | 5
COc1ccc(CN(C(=O)c2ccco2)c2ccccc2)cc1 | 2840 | -7.9 | -16 | 6 | -5 | 21 | 11
C/C(=N\NC(=O)C(c1ccccc1)c1ccccc1)c1ccc(O)cc1 | 2979 | / | -4 | / | -5 | / | /
CCOC(=O)c1[nH]c2ccc(OC)cc2c1NC(=O)NC(C)C | 2647 | -1.1 | 12 | -1 | -3 | / | /
Cc1nnc(SCc2ccccc2)n1N | 2623 | 1.1 | -18 | 0 | -3 | / | /
COc1ccc(S(=O)(=O)N2CCC(C(=O)Nc3ccc(OC)c(OC)c3)CC2)cc1C | 2801 | -2.9 | -7 | 2 | 0 | / | /
O=C(Nc1ccc(Cc2ccncc2)cc1)c1cccs1 | 3334 | 11 | -19 | 4 | -4 | -14 | -11
CSCC(=O)N1CCC(n2nccc2NC(=O)CCCc2ccccc2)CC1 | 5277 | 2.7 | 37 | 3 | -6 | 9 | -15
CCCC(=O)Nc1ccc(N2CCN(C(=O)c3ccccc3C)CC2)cc1 | 2713 | -0.2 | 19 | 1 | -1 | / | /
O=C1CSCC(=O)N1c1ccccc1 | 2828 | -7.8 | 1 | -8 | -11 | 5 | 4
C=CCN(c1ccccc1)S(=O)(=O)c1ccc2c(c1)NC(=O)C(C)C(=O)N2 (configuration not stated) | 5467 | -1.8 | -9 | -8 | -1 | 3 | 8
O=C(CN1C(=O)COc2ccccc21)Nc1ccc2c(c1)OCCO2 | 10366 | -2.3 | -38 | 3 | 4 | 1 | 3
COc1ccc(C2CC=C(C(=O)O)C(c3ccccc3F)N2S(=O)(=O)c2ccc(C)cc2)cc1OC (configuration not stated) | / | 10 | / | 6 | / | 19 | 4
